Assay outcomes as filed in PubChem BioAssay.
Env fusion inh – HIV envelope-mediated fusion inhibition. inhibition, % at 12.3 µM. HeLa-JRFL Env/CEM21 cell fusion, luciferase. 360,000 tested, 1.1% active;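 active means mean replicate inhibition score of at least 50 and every replicate individually at or above 50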;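 further: 0% = plate neutral controls and 100% = maraviroc near 300 nM; one replicate is shown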
Numbers without * were called inactive; [ ] = dose if it differs, or a comment.

compound	Env fusion inh
COC(=O)C[C@@H]1CC[C@@H](NS(=O)(=O)c2ccccc2F)[C@@H](CO)O1	4[16.7 µM]
COc1cccc(CN(C)[C@H]2C[C@H]3c4[nH]c5ccccc5c4CCN3C[C@H]2[C@H](C)O)c1OC	16
CO[C@@H]1CN(C)C(=O)c2cc(NS(=O)(=O)c3cn(C)cn3)ccc2OC[C@H](C)NC[C@H]1C	17[16.7 µM]
CCCNC(=O)N1C[C@@H](C)[C@H](OC)CN(C)C(=O)c2cc(NC(=O)CCC)ccc2OC[C@H]1C	-7[16.7 µM]
CO[C@H]1CN(C)C(=O)c2ccc(NC(=O)c3ccc(F)cc3)cc2OC[C@H](C)N(C(=O)CC2CC2)C[C@H]1C	-5[16.7 µM]
C[C@@H]1CN([C@@H](C)CO)C(=O)c2cc(NC(=O)Cc3cn(C)c4ccccc34)ccc2O[C@H]1CN(C)Cc1ccncc1	34[16.7 µM]
C[C@@H](NC(=O)C[C@@H]1CC[C@H]2[C@@H](COC[C@@H](O)CN2C(=O)Nc2cccc(Cl)c2)O1)c1ccccc1	7[16.7 µM]
COc1cc(OC)c(NC(=O)NNC(=O)C(=O)NC2CC2)cc1Cl	4
O=C(N[C@H]1CC[C@H](CCNS(=O)(=O)c2ccc(Cl)cc2)O[C@@H]1CO)c1ccccn1	13[16.7 µM]
CCCNC(=O)N1CC2(CCN(C(=O)c3cccnc3)CC2)c2c([nH]c3cc(OC)ccc23)[C@@H]1CO	6[16.7 µM]
C[C@@H]1CN([C@@H](C)CO)S(=O)(=O)c2ccc(-c3cccnc3)cc2O[C@H]1CN(C)CC1CCOCC1	-4[16.7 µM]
CCNC(=O)[C@@H]1[C@@H](CO)[C@@H]2Cn3c(ccc(-c4ccc(OC)cc4)c3=O)[C@H]1N2CC1CC1	4[16.7 µM]
COC(=O)C[C@H]1CC[C@@H](N)[C@H](CO)O1	5[16.7 µM]
CC=Cc1ccc2n(c1=O)C[C@@H]1[C@@H](CO)[C@H](C(=O)NCCc3cn(C)cn3)[C@H]2N1C(=O)CC (mixture of isomers)	16[16.7 µM]
C=CCNc1cccc2c1S(=O)(=O)N[C@@H](CC(C)C)CO2	17
CNC[C@@H]1OCCCC[C@@H](C)Oc2ccc(NC(=O)c3ccccc3)cc2C(=O)N([C@@H](C)CO)C[C@H]1C	-8[16.7 µM]
CO[C@H]1CN(C)C(=O)c2ccc(NC(=O)C3CC3)cc2OC[C@@H](C)N(C(=O)c2ccncc2)C[C@H]1C	2[16.7 µM]
COc1ccccc1CCn1cnc(-c2ccccc2OC)c1C(C)C	-20
CSc1ccc(SC2CN(Cc3ccc(C)cc3)S(=O)(=O)C2)cc1 (stereo not given)	-7
CCn1cc(C(=O)Nc2ccc(Oc3cccnc3)cc2)c2ccccc21	-24
CO[C@@H]1CC[C@H]2CCN(C)C(=O)[C@H](C)CN(C)C(=O)c3cccc(C#N)c3OC[C@@H]1O2	21[16.7 µM]
C=CCN1C[C@H](COC(=O)c2cccc(C)c2)Oc2cccc(F)c2S1(=O)=O	17
COc1ccc(S(=O)(=O)N2CCC3(CC2)CN(C(=O)c2cccnc2)[C@@H](CO)c2c3c3ccc(OC)cc3n2C)cc1	25[16.7 µM]
C[C@@H]1CN([C@H](C)CO)S(=O)(=O)c2ccc(-c3ccc(F)cc3)cc2O[C@H]1CN(C)C(=O)C1CCC1	16[16.7 µM]
COc1ccccc1CNC(=O)C[C@H]1CC[C@@H]2[C@H](COC[C@H](O)CN2Cc2cccc(-c3ccncc3)c2)O1	-14[16.7 µM]
C[C@@H]1CCc2cnnn2COC[C@@H](Cc2ccccc2)NC1=O	-21[16.7 µM]
CCS(=O)(=O)Nc1ccc2c(c1)C(=O)N(C)C[C@H](OC)[C@H](C)CN(C(=O)C1CCC1)[C@@H](C)CO2	3[16.7 µM]
O=C(C[C@@H]1C[C@@H]2c3cc(NC(=O)Nc4ccc(C(F)(F)F)cc4)ccc3O[C@@H]2[C@@H](CO)O1)NCc1cccnc1	0[16.7 µM]
C[C@H](CO)N1C[C@H](C)[C@H](CN(C)S(=O)(=O)c2ccc(F)cc2)Oc2ccc(NS(=O)(=O)c3ccccc3)cc2C1=O	-15[16.7 µM]
COC(=O)C1=C(C)N(Cc2cccc(C(F)(F)F)c2)C(=NCc2ccccc2C(F)(F)F)NC1c1cccc(C(F)(F)F)c1 (stereo not given)	11
O=C(C[C@H]1C[C@@H]2c3cc(NC(=O)Cc4ccncc4)ccc3O[C@@H]2[C@@H](CO)O1)NCCN1CCCCC1	-1[16.7 µM]
C[C@@H]1CN([C@H](C)CO)C(=O)Cc2cc(NS(=O)(=O)c3ccccc3)ccc2O[C@@H]1CN(C)C(=O)Nc1ccc(C(F)(F)F)cc1	-7[16.7 µM]
CCOC(=O)CN1CCCc2nc(C)c(C)cc21	84*
CC(C)NC(=O)N(C)C[C@H]1Oc2ncc(C#CC3CC3)cc2C(=O)N([C@@H](C)CO)C[C@H]1C	-39[16.7 µM]
O=C(C(=O)N1CCN(C(=O)c2ccccc2C(F)(F)F)CC1)c1cccc(C(F)(F)F)c1	2
COc1ccccc1S(=O)(=O)N[C@@H]1CC[C@H](CCn2cc(C3CCCCC3)nn2)O[C@@H]1CO	-3[16.7 µM]
NC(=O)c1c(N)[nH]c(C(=O)c2ccccc2)c1-c1ccc2ccccc2c1	-41
O=C(C[C@H]1C[C@@H]2c3cc(NS(=O)(=O)c4ccc(F)cc4)ccc3O[C@@H]2[C@@H](CO)O1)NCCN1CCCCC1	0[16.7 µM]
C[C@H]1CN([C@@H](C)CO)C(=O)Cc2cc(NC(=O)CCC(F)(F)F)ccc2O[C@@H]1CN(C)Cc1ccncc1	1[16.7 µM]
CCCN(C)C[C@H]1Oc2cc(-c3cccc(F)c3)ccc2S(=O)(=O)N([C@H](C)CO)C[C@H]1C	11[16.7 µM]

smiles: O=C(NC1CCCC1)[C@@H]1[C@@H](CO)[C@@H]2Cn3c(ccc(-c4ccccc4F)c3=O)[C@H]1N2C(=O)CC1CC1
  Env fusion inh: 3[16.7 µM]
smiles: CO[C@@H]1CC[C@@H]2CCOc3ccc(C#N)cc3C(=O)N(C)[C@@H](C)C(=O)N(C)C[C@H]1O2
  Env fusion inh: 10[16.7 µM]
smiles: CO[C@H]1CN(C)C(=O)c2cc(NC(=O)CC(F)(F)F)ccc2OC[C@@H](C)N(C(=O)C2CC2)C[C@@H]1C
  Env fusion inh: 29[16.7 µM]
smiles: Cc1ccccc1S(=O)(=O)NCC[C@H]1CC[C@H](NS(=O)(=O)c2ccccc2C)[C@@H](CO)O1
  Env fusion inh: -28[16.7 µM]
smiles: CC(C)NC(=O)N1Cc2cc(C(=O)NC3CCC3)nc(-c3cccc(-c4cncnc4)c3)c2[C@@H]1CCO
  Env fusion inh: -9[16.7 µM]
smiles: CN1CCCCC(NC(=O)c2ccc(C#N)cc2)C1=O (stereo not given)
  Env fusion inh: 8
smiles: CC(C)NC(=O)Nc1ccc2c(c1)C(=O)N([C@H](C)CO)C[C@@H](C)[C@@H](CN(C)C)O2
  Env fusion inh: -1[16.7 µM]
smiles: CN1C(=O)c2cc(NC(=O)NC3CCCC3)ccc2OC[C@@H]2O[C@H](CC(=O)NCC3CC3)CC[C@@H]21
  Env fusion inh: -1[16.7 µM]
smiles: COc1ccc(CN(C)C[C@@H]2Oc3ccc(NC(=O)c4ccncc4)cc3CC(=O)N([C@H](C)CO)C[C@H]2C)cc1
  Env fusion inh: -7[16.7 µM]
smiles: O[C@@H](Cc1ccccc1)[C@@H](/C=C/c1ccccc1)N(Cc1ccccc1)Cc1ccccc1
  Env fusion inh: 31
smiles: C[C@@H]1CCCCO[C@H](CN(C)CC2CCCCC2)[C@@H](C)CN([C@H](C)CO)C(=O)c2cc(NC(=O)CCCN(C)C)ccc2O1
  Env fusion inh: 6[16.7 µM]
smiles: COc1ccccc1CNC(=O)C[C@H]1C[C@H]2c3cc(NC(=O)C4CCOCC4)ccc3O[C@H]2[C@@H](CO)O1
  Env fusion inh: 2[16.7 µM]
smiles: C[C@H](CO)N1C[C@H](C)[C@@H](CN(C)S(=O)(=O)c2cn(C)cn2)Oc2ccc(NC(=O)Nc3ccc(F)cc3)cc2CC1=O
  Env fusion inh: 8[16.7 µM]
smiles: CCCNC(=O)N1C[C@H](C)[C@H](OC)CN(C)C(=O)c2ccc(NC(=O)CC)cc2OC[C@H]1C
  Env fusion inh: -11[16.7 µM]
smiles: COc1cc(F)ccc1Oc1cccc2c1S(=O)(=O)N([C@H](C)c1ccccc1)C[C@@H](COCc1ccccc1)O2
  Env fusion inh: 6
smiles: C[C@@H]1CCCCO[C@@H](CN(C)Cc2ccncc2)[C@H](C)CN([C@@H](C)CO)C(=O)c2cc(NS(C)(=O)=O)ccc2O1
  Env fusion inh: -2[16.7 µM]
smiles: O=C(C[C@H]1C[C@@H]2c3cc(NC(=O)c4cccnc4)ccc3O[C@@H]2[C@H](CO)O1)NC1CCCCC1
  Env fusion inh: -10[16.7 µM]
smiles: CN1C(=O)c2cc(NC(=O)Nc3cccc(C#N)c3)ccc2OC[C@H]2O[C@@H](CC(=O)NCc3ccc(Cl)cc3)CC[C@@H]21
  Env fusion inh: 20[16.7 µM]
smiles: Cc1onc(-c2ccccc2)c1C(=O)NCC1CCN(C(=O)C(=O)c2cccs2)CC1
  Env fusion inh: 11
smiles: C[C@H](O)[C@@H]1CN2CCc3ccc(-c4ccc5c(c4)OCO5)cc3[C@@H]2C[C@@H]1N(C)C(=O)c1cccc(Cl)c1
  Env fusion inh: -7
smiles: CC=Cc1ccc2n(c1=O)C[C@@H]1[C@@H](CO)[C@H](C(=O)N3CCCCC3)[C@H]2N1Cc1ccccn1 (mixture of isomers)
  Env fusion inh: -4[16.7 µM]
smiles: Cc1ccccc1C(=O)N[C@H](C(=O)N1CCC[C@H]1C(=O)NCc1ccccc1)C(C)C
  Env fusion inh: 16
smiles: O=C(C[C@@H]1C[C@H]2c3cc(NC(=O)c4ccc5c(c4)OCO5)ccc3O[C@H]2[C@@H](CO)O1)NCCc1ccccc1
  Env fusion inh: 7[16.7 µM]
smiles: C[C@@H]1CN([C@@H](C)CO)C(=O)c2c(c3ccccc3n2C)-c2ccccc2CO[C@H]1CN(C)C(=O)Nc1ccc(F)cc1
  Env fusion inh: 45[16.7 µM]
smiles: O=C(Nc1ccc(-c2ccccc2)cc1)[C@H]1[C@H](CO)[C@H]2Cn3c(cccc3=O)[C@H]2N1CC1CC1
  Env fusion inh: -13[16.7 µM]

smiles: C[C@H]1CN([C@@H](C)CO)C(=O)c2cc(NC(=O)Nc3ccc(C(F)(F)F)cc3)ccc2O[C@@H]1CN(C)S(=O)(=O)c1ccccc1
  Env fusion inh: 21[16.7 µM]
smiles: CCCC(=O)N1CCC2(CC1)CN(C(=O)COC)[C@H](CO)c1c2c2ccc(OC)cc2n1C
  Env fusion inh: 9[16.7 µM]
smiles: COC(=O)[C@]12C[C@H](CC(=O)N3CCOCC3)C(=O)N(Cc3ccccc3)C1=C[C@H](C(C)C)O[C@@H]2C1CC1
  Env fusion inh: -11
smiles: Cc1ccc(S(=O)(=O)Nc2cccc3c2O[C@@H](CN(C)C(=O)Nc2cccc4ccccc24)[C@@H](C)CN([C@@H](C)CO)C3=O)cc1
  Env fusion inh: -50[16.7 µM]
smiles: CC(C)NC(=O)N(C)C[C@@H]1Oc2ncc(C#CC3CC3)cc2C(=O)N([C@H](C)CO)C[C@@H]1C
  Env fusion inh: -15[16.7 µM]
smiles: COCC(=O)NCC1CCN(C(=O)C(=O)c2cccs2)CC1
  Env fusion inh: 13
smiles: COC(=O)C1=C(C)N(Cc2ccc(F)cc2)C(=S)NC1c1ccccc1 (stereo not given)
  Env fusion inh: -7
smiles: COC(=O)C1=C(C)N(CC(C)C)C(=S)NC1c1ccc(Cl)cc1 (stereo not given)
  Env fusion inh: 16
smiles: O=C(O)C[C@@H]1C[C@H]2c3cc(NS(=O)(=O)c4ccc(F)cc4)ccc3O[C@H]2[C@@H](CO)O1
  Env fusion inh: 0[16.7 µM]
smiles: COc1ccccc1NC(=O)Nc1ccc2c(c1)C(=O)N(C)C[C@H](OC)[C@@H](C)CN(C)[C@H](C)CO2
  Env fusion inh: -5[16.7 µM]
smiles: COC(=O)c1cc2c(c3c4ccccc4n(S(=O)(=O)c4cccc(C)c4)c13)C(=O)N(Cc1ccc(N(C)C)cc1)C2
  Env fusion inh: -5
smiles: CO[C@H](C(=O)N(C)C[C@H]1OCc2ccccc2-c2ccccc2C(=O)N([C@@H](C)CO)C[C@H]1C)c1ccccc1
  Env fusion inh: -1[16.7 µM]
smiles: Cc1noc(C)c1NC(=O)Nc1ccc2c(c1)C(=O)N(C)[C@@H]1CC[C@@H](CC(=O)N[C@H]3CCN(Cc4ccccc4)C3)O[C@H]1CO2
  Env fusion inh: -7[16.7 µM]
smiles: CNc1ncn(-c2c(C)cccc2C)c(=O)n1
  Env fusion inh: 8
smiles: O=C(C[C@H]1C[C@H]2c3cc(NS(=O)(=O)c4ccc(F)cc4)ccc3O[C@H]2[C@H](CO)O1)NCc1ccc(Oc2ccccc2)cc1
  Env fusion inh: -77[16.7 µM]
smiles: CO[C@H]1CN(C)C(=O)c2ccc(NC(=O)NC(C)C)cc2OC[C@H](C)N(C(=O)CC2CC2)C[C@H]1C
  Env fusion inh: -6[16.7 µM]
smiles: Cc1nn(C)cc1NC(=O)C[C@@H]1CC[C@@H]2[C@H](COc3ccc(NC(=O)C4CCOCC4)cc3C(=O)N2C)O1
  Env fusion inh: -5[16.7 µM]

6 entries already listed, ordered by the number in Env fusion inh, low to high.
smiles: COC(=O)[C@]12C[C@H](CC(=O)N3CCOCC3)C(=O)N(Cc3ccccc3)C1=C[C@H](C(C)C)O[C@@H]2C1CC1
  Env fusion inh: -11
smiles: COC(=O)C1=C(C)N(Cc2ccc(F)cc2)C(=S)NC1c1ccccc1 (stereo not given)
  Env fusion inh: -7
smiles: O=C(C(=O)N1CCN(C(=O)c2ccccc2C(F)(F)F)CC1)c1cccc(C(F)(F)F)c1
  Env fusion inh: 2
smiles: CNc1ncn(-c2c(C)cccc2C)c(=O)n1
  Env fusion inh: 8
smiles: COc1cccc(CN(C)[C@H]2C[C@H]3c4[nH]c5ccccc5c4CCN3C[C@H]2[C@H](C)O)c1OC
  Env fusion inh: 16
smiles: C=CCN1C[C@H](COC(=O)c2cccc(C)c2)Oc2cccc(F)c2S1(=O)=O
  Env fusion inh: 17

A portion of the library, so the mix of outcomes need not match the whole.
